CFTR F508del – total CFTR protein upregulators, primary screen, cell-based, HeLa F508del-CFTR, immunofluorescence, viability (AID 1224863) | HeLa F508del-CFTR, immunofluorescence total CFTR, 24 h; by the record results were divided by relative cell number; some inactives read as strong as hits | calls, or highest fold increase where a dose series was run | hit rate 0.1% among 10,000; in the data nearly all actives have a first-pass fold increase above 1.5; a few of its hits are not listed in these tables;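 also: total CFTR protein by anti-CFTR immunofluorescence in fixed cells; first pass at 25 µM or 10 µg/mL by library and series up to twice that; 1 = untreated cells; first-pass hits also needed half or more of the cells alive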
CFTR F508del fold 25 µM – recorded beside CFTR F508del, whose call it bears; fold increase; measured here: primary screen single dose 25 uM; library dosed in µM
CFTR F508del fold 10 ug/mL – second read-out of CFTR F508del, no call of its own (marks repeat the call); fold increase; measured here: primary screen 10 ug/mL
CFTR F508del viability 25 µM – further read-out of CFTR F508del, marked with its call; viability, %; measured here: primary viability 25 uM; library dosed in µM;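 0% = killed and 100% = untreated cells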
CFTR F508del viability 10 ug/mL – also measured in CFTR F508del; calls as there; viability, %; measured here: primary viability 10 ug/mL;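 0% = killed and 100% = untreated cells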
* hit, by the source's call; i = inactive; · = no result given; & = joins results of further samples.

SMILES	CFTR F508del	CFTR F508del fold 10 ug/mL	CFTR F508del viability 10 ug/mL	others
CC1=C(C#N)C(c2ccc(OCc3ccccc3)c(OCc3ccccc3)c2)C(C#N)=C(C)N1	i	1	94
Cn1c(NCc2cn3ccccc3n2)c(C#N)c(=O)n(C)c1=O	i	1.2	86
CN(Cc1nc2ccccc2s1)CN1C(=O)c2ccccc2C1=O	i	1.1	93
C#CCNC1CCCc2ccccc21 (stereo not drawn)	i	0.96	97
O=C(CCc1nc(-c2ccsc2)no1)NC12CC3CC(CC(C3)C1)C2	i	1	101
CN(C)S(=O)(=O)N1CCN(C(=O)Nc2ccc(C(F)(F)F)cc2)CC1	i	0.91	82
S=C=Nc1ccc(N=C=S)cc1	i	·	·	CFTR F508del fold 25 µM=1.3;CFTR F508del viability 25 µM=81
Cc1cc(=S)n(CN2CCN(c3ncc(C(F)(F)F)cc3Cl)CC2)c(C)n1	i	1	108
Cc1c(/C=C(/C#N)c2ccc([N+](=O)[O-])cc2)cc(C#N)n1C	1.5	2.1	83
O=[N+]([O-])c1ccc(S(=O)(=O)N2CCN(C3CCS(=O)(=O)C3)CC2)cc1 (stereo not drawn)	i	1	79
Cn1c(SC2CCCCNC2=O)nc2sccc2c1=O (stereo not drawn)	i	1	105
CCCn1c(N)c(C(=O)CSc2nn3c(=O)c(C(C)(C)C)nnc3s2)c(=O)n(C)c1=O	i	0.98	88
COc1ccc2cccc(CCNC(C)=O)c2c1	i	·	·	CFTR F508del fold 25 µM=1;CFTR F508del viability 25 µM=90
CN(Cc1nccn1C(F)F)S(=O)(=O)c1ccc2c(c1)CCCC2	i	1	103
CN(Cc1ccc(Cl)s1)Cn1ncn(C)c1=S	i	1.1	102
O=C(CCN1C(=O)C2CC=CCC2C1=O)Nc1ncn[nH]1 (stereo not drawn)	i	1.1	109
NS(=O)(=O)c1cccc(S(=O)(=O)NC2CCCCCCC2)c1	i	0.91	93
CS(=O)(=O)c1ccc(N)cn1	i	1.2	92
CC(C)(C)c1nc(=S)n(CN2CCCc3cc(F)cc(F)c32)[nH]1	i	1.1	106
CN1CCN(C(c2ccccc2)c2ccc(Cl)cc2)CC1 (stereo not drawn)	i	·	·	CFTR F508del fold 25 µM=1;CFTR F508del viability 25 µM=93
COCCNC(=O)CN(C)Cc1nc2sc3c(c2c(=O)[nH]1)CCC3	i	0.98	80
CC(C)(C)OC(=O)N1CCC(C(=O)Nc2nnc(C3CC3)s2)CC1	i	1	89
O=c1[nH]ncc(Br)c1Br	i	1.1	84
CC12CCC(=O)N1C(C(=O)Nc1cc(C(F)(F)F)cc(C(F)(F)F)c1)CS2 (stereo not drawn)	i	1	97
CC(C)CCC(=O)Nc1sc2c(c1C(=O)N1CCOCC1)CCCC2	i	0.9	79

Next section (four carried over from the part before).
SMILES	CFTR F508del	CFTR F508del fold 10 ug/mL	CFTR F508del viability 10 ug/mL	others
CC(C)(C)OC(=O)N1CCC(C(=O)Nc2nnc(C3CC3)s2)CC1	i	1	89
O=c1[nH]ncc(Br)c1Br	i	1.1	84
CC12CCC(=O)N1C(C(=O)Nc1cc(C(F)(F)F)cc(C(F)(F)F)c1)CS2 (stereo not drawn)	i	1	97
CC(C)CCC(=O)Nc1sc2c(c1C(=O)N1CCOCC1)CCCC2	i	0.9	79
COc1cc2c(cc1OC)CN(c1nc3cc(C)nn3c3ccccc13)CC2	i	0.72	80
COc1ccccc1S(=O)(=O)NC(C)C1CC2CCC1C2 (stereo not drawn)	i	1	110
CC(NC(=O)C12CC3CC(CC(C3)C1)C2)C(=O)Nc1nc2cc3c(cc2s1)OCCO3 (stereo not drawn)	i	0.91	95
O=c1c(Cl)c(Cl)cnn1-c1ccc(F)cc1F	i	0.64	67
O=S(=O)(c1ccc(N2CCC3CCCCC3C2)nc1)N1CCOCC1 (stereo not drawn)	i	1	97
COc1cc(Cn2nnc(-c3cccc(F)c3)n2)ccc1OC(F)F	i	1.1	98
N#CCSc1cc(Cl)ccc1Cl	i	0.96	75
FC(F)(F)c1ccc2c(c1)CCCN2Cn1nc(-c2cccnc2)n(C2CC2)c1=S	i	0.99	82
CC(C)(C)c1csc(NC(=O)CN2C(=O)NC3(CCCCC3)C2=O)n1	i	1	88
Cc1c(C(=O)O)cnn1C1CCS(=O)(=O)C1 (stereo not drawn)	i	1	93
CC1(C)O[C@@H]2CC3C4CCC5=CC(=O)C=C[C@]5(C)[C@@]4(F)[C@@H](O)C[C@]3(C)[C@]2(C(=O)CO)O1 (stereo partly drawn)	i	·	·	CFTR F508del fold 25 µM=1.1;CFTR F508del viability 25 µM=98
COc1cccc(OC)c1OC1CCNCC1	i	1.1	95
CC(C)(C)C(=O)COC(=O)c1c[nH]c2ccccc12	i	1	81
Cc1cccc(OCCCNS(=O)(=O)N2CCC(C)CC2)c1	i	0.87	87
Cc1ccc(-c2ncc(Cl)cc2-c2ccc(S(C)(=O)=O)cc2)cn1	i	·	·	CFTR F508del fold 25 µM=1.1;CFTR F508del viability 25 µM=90
CC1(c2ccc3c(c2)OCCO3)NC(=O)N(Cc2ccc3c(c2)OCO3)C1=O (stereo not drawn)	i	0.96	93
O=C(CCCN1C(=O)NC2(CCCC2)C1=O)N1CCN(CC(=O)N2CCOCC2)CC1	i	1	101
CC(C#N)Sc1nnc(-c2cccs2)n1C1CC1 (stereo not drawn)	i	1.1	97
CCCCC[C@H](O)/C=C/[C@H]1[C@H](O)CC(=O)[C@@H]1CCCCCCC(=O)O	i	·	·	CFTR F508del fold 25 µM=1;CFTR F508del viability 25 µM=103
NC(=O)c1ccsc1NC(=O)CSc1nncn1Cc1ccco1	i	1	90
Cc1cc(C)n(CC(=O)N2CCN(S(=O)(=O)N3CC(C)OC(C)C3)CC2)n1 (stereo not drawn)	i	1	95
Cc1ccc(-n2nnnc2SCc2nnnn2-c2ccccc2)c(C)c1	i	0.9	94
CCCCC1=NC2(CCCC2)C(=O)N1Cc1ccc(-c2ccccc2-c2nn[nH]n2)cc1	i	·	·	CFTR F508del fold 25 µM=1.1&0.99;CFTR F508del viability 25 µM=88&78
O=c1[nH]c(=O)c2ccccc2o1	i	·	·	CFTR F508del fold 25 µM=1;CFTR F508del viability 25 µM=76
O=C(COc1ncnc2sc3c(c12)CCC3)N1CCCCC1	i	1	97
SMILES	CFTR F508del	CFTR F508del fold 10 ug/mL	CFTR F508del viability 10 ug/mL	others
NC(=O)C(NC(=O)NC1CC1)C(N)=O	i	0.92	96
NCc1ccc(COc2ccccc2)cc1	i	1	102
CN(C)c1ccc(-c2nc(-c3ccc4c(c3)NC(=O)CO4)cs2)cc1	i	0.95	82
O=C(Cc1cc(Cl)cc2c1OCOC2)N1CCN(C(=O)c2cc(Cl)cc(Cl)c2)CC1	i	0.91	95
c1ccc(C(Nc2nc(-c3cccs3)nc3ccccc23)c2ccccc2)cc1	i	1.2	79
O=c1[nH]cnc2cc(NCCN3CCCC3)c([N+](=O)[O-])cc12	i	1	95
Cc1noc(C(C)C)c1C(=O)NC1=NCCS1	i	1	97
CSc1ncc(Cl)c(C(=O)OC(C)C(=O)c2[nH]c(C)c(C(C)=O)c2C)n1 (stereo not drawn)	i	0.96	98
O=C1CN(Cc2ccc(F)cc2Br)CCN1	i	1.1	100
CN(Cc1cccc(Br)c1)S(=O)(=O)Cc1ccc(C#N)cc1	i	0.84	77
Cc1nn(CC(=O)N(C)C2CCCCC2)c(C)c1Br	i	1.1	101
CCNC(=O)c1[nH]c2c(c1C)C(=O)CCC2	i	1	106
Cc1nn(-c2ccc(F)cc2)c(C)c1/C=C1\Cc2ccccc2C1=O	i	1.1	87
O=C(OCc1cc2c(cc1Br)OCCO2)c1n[nH]c(=O)c2ccccc12	i	1	95
CC(NS(=O)(=O)/C=C/c1ccc(Cl)cc1)c1ccc2c(c1)OCCO2 (stereo not drawn)	i	0.96	89
COc1ccc(OC)c2c1CN(Cn1ncc3ccccc3c1=O)CC2O (stereo not drawn)	i	0.99	96
CCCn1nnnc1CN1CCN(c2ccc([N+](=O)[O-])cc2)CC1	i	0.92	101
Cc1cc(NC(=O)CSCC(=O)N(C)CC23CC4CC(CC(C4)C2)C3)no1	i	0.87	88
COC(CN(Cc1nc(N)nc(Nc2ccc(C)cc2)n1)Cc1nc(N)nc(Nc2ccc(C)cc2)n1)OC	i	0.98	72
O=C1COc2ccc(C(=O)COC(=O)c3oc4ccccc4c3CSC3CCCCC3)cc2N1	i	0.96	96
CCOc1nc2cccc(C(=O)OCc3oc(=O)oc3C)c2n1Cc1ccc(-c2ccccc2-c2noc(O)n2)cc1	i	·	·	CFTR F508del fold 25 µM=1.1;CFTR F508del viability 25 µM=114
Cc1ccc2c(Cl)cc(Cl)c(OCc3cccc(C(F)(F)F)c3)c2n1	i	1.2	76
C[N+](C)(C)CCOC(=O)CCC(=O)OCC[N+](C)(C)C	i	·	·	CFTR F508del fold 25 µM=1.1;CFTR F508del viability 25 µM=106
Cc1nn(C)c2c1CC(N)CN2 (stereo not drawn)	i	1	75
O=C(OCC(=O)c1c[nH]c2ccccc12)c1oc2ccccc2c1CSC1CCCCC1	i	0.89	85
SMILES	CFTR F508del	CFTR F508del fold 10 ug/mL	CFTR F508del viability 10 ug/mL	others
Cc1cc2nc3c(=O)[nH]c(=O)nc-3n(C[C@@H](O)[C@@H](O)[C@@H](O)COP(=O)(O)O)c2cc1C	i	·	·	CFTR F508del fold 25 µM=1.1;CFTR F508del viability 25 µM=108
OC[C@@H](O)C(O[C@@H]1O[C@H](CO)[C@H](O)[C@H](O)[C@H]1O)[C@H](O)[C@@H](O)CO (stereo partly drawn)	i	·	·	CFTR F508del fold 25 µM=1;CFTR F508del viability 25 µM=89
CCCCC1CCC(CN)CC1 (stereo not drawn)	i	0.71	51
COC(=O)c1cc(Cl)c[nH]1	i	0.96	99
O=S(=O)(NCc1ccnc(-n2cccn2)c1)c1ccc2c(c1)OCCO2	i	0.94	80
Cc1cc(C(=O)N2CCCC3CCCCC32)on1 (stereo not drawn)	i	1	99
CCC(C)NC (stereo not drawn)	i	1.1	94
CCn1c(SCc2cc(Cl)c3c(c2)OCO3)nnc1-c1ccco1	i	0.98	68
CCOCCCn1c(=C(C#N)C#N)s/c(=C\c2cccs2)c1=O	i	1	98
O=C1CN(C(=O)c2nn(-c3ccccc3)c(=O)c3ccccc23)CCN1	i	1	100
Cc1cc(C)nc(Sc2nc3sccn3c2[N+](=O)[O-])n1	i	0.94	79
N#Cc1nncn1-c1ccccc1[N+](=O)[O-]	i	1.1	100
CCCCn1nnnc1CSc1nnc(-c2cccnc2)n1C	i	0.99	100
CC(C)c1nc(=S)n(CN2CCN(S(=O)(=O)c3cccnc3)CC2)[nH]1	i	0.92	92
Cc1cc(C(=O)N2CCOCC2)c(C)n1Cc1ccco1	i	1	102
N#CCCN(CCC#N)C(=O)COC(=O)c1cc(Br)c[nH]1	i	0.96	98
c1csc(-c2[nH]ncc2CNCCc2c[nH]c3ccccc23)c1	i	0.99	93
CC(C)(C)OC(=O)NC1CCN(C(=O)c2cc3c(s2)CCCCCC3)CC1	i	1.1	86
CC1(C)CC(=O)C2=C(C1)N=C1c3ccccc3C(=O)C1C2c1cc([N+](=O)[O-])ccc1O (stereo not drawn)	i	1.1	102
CCN(CC)C(=O)C(C)NC(=O)c1c(C)oc(-n2cccc2)c1C#N (stereo not drawn)	i	0.95	90
CCOC(=O)n1ccn(C)c1=S	i	·	·	CFTR F508del fold 25 µM=0.95;CFTR F508del viability 25 µM=102
CCOC(=O)c1c(C)oc2nc(CN3CC(C)CC(C)C3)[nH]c(=O)c12 (stereo not drawn)	i	1.1	104
Cc1cc(C(=O)COC(=O)c2ncc(Cl)c(Cl)c2Cl)c(C)n1-c1ccc2c(c1)OCO2	i	0.91	108
Cc1cccc(C)c1OCC(C)N (stereo not drawn)	i	·	·	CFTR F508del fold 25 µM=1.1;CFTR F508del viability 25 µM=104
C[C@H]1O[C@@H](O[C@H]2[C@@H](O)C[C@H](O[C@H]3[C@@H](O)C[C@H](O[C@H]4CC[C@]5(C)C6C[C@@H](O)[C@]7(C)[C@@H](C8=CC(=O)OC8)CC[C@]7(O)C6CC[C@@H]5C4)O[C@@H]3C)O[C@@H]2C)C[C@H](O)[C@@H]1O (stereo partly drawn)	i	·	·	CFTR F508del fold 25 µM=0.59;CFTR F508del viability 25 µM=47
Cc1cc2nc(/C=C/c3ccc(-c4ccccc4)cc3)sc2cc1C	i	1.1	101
COc1ccc2cc3[n+](cc2c1OC)CCc1cc2c(cc1-3)OCO2	i	·	·	CFTR F508del fold 25 µM=0.89;CFTR F508del viability 25 µM=79
CC(C1CC2CCC1C2)n1c(SCC(=O)c2ccc(Cl)s2)nnc1-c1cccs1 (stereo not drawn)	i	0.87	76

Gathered by group: those above containing a furan ring, fused or not
SMILES	CFTR F508del	CFTR F508del fold 10 ug/mL	CFTR F508del viability 10 ug/mL	others
NC(=O)c1ccsc1NC(=O)CSc1nncn1Cc1ccco1	i	1	90
O=C1COc2ccc(C(=O)COC(=O)c3oc4ccccc4c3CSC3CCCCC3)cc2N1	i	0.96	96
O=C(OCC(=O)c1c[nH]c2ccccc12)c1oc2ccccc2c1CSC1CCCCC1	i	0.89	85
CCn1c(SCc2cc(Cl)c3c(c2)OCO3)nnc1-c1ccco1	i	0.98	68
Cc1cc(C(=O)N2CCOCC2)c(C)n1Cc1ccco1	i	1	102
CCN(CC)C(=O)C(C)NC(=O)c1c(C)oc(-n2cccc2)c1C#N (stereo not drawn)	i	0.95	90
CCOC(=O)c1c(C)oc2nc(CN3CC(C)CC(C)C3)[nH]c(=O)c12 (stereo not drawn)	i	1.1	104

High-throughput results as filed in PubChem BioAssay.

The list is partial, so the mix of outcomes need not match the whole.
